High-throughput results: PubChem, National Center for Advancing Translational Sciences (NCATS)
TRPV1 potentiator: human TRPV1 potentiation. TRPV1-expressing cells, Fluo-8 calcium influx, capsaicin EC20 potentiation; host cell line not named in the record; control for the full effect not named in the record. potentiation, % at 8.33 µM. 320,000 tested, 0.02% active; active means potentiation above 80%; inconclusive means 30% to 80%; inactive means below 30%; also: 0% is about no effect
Target sequence (Q8NER1 whole entry, looked up): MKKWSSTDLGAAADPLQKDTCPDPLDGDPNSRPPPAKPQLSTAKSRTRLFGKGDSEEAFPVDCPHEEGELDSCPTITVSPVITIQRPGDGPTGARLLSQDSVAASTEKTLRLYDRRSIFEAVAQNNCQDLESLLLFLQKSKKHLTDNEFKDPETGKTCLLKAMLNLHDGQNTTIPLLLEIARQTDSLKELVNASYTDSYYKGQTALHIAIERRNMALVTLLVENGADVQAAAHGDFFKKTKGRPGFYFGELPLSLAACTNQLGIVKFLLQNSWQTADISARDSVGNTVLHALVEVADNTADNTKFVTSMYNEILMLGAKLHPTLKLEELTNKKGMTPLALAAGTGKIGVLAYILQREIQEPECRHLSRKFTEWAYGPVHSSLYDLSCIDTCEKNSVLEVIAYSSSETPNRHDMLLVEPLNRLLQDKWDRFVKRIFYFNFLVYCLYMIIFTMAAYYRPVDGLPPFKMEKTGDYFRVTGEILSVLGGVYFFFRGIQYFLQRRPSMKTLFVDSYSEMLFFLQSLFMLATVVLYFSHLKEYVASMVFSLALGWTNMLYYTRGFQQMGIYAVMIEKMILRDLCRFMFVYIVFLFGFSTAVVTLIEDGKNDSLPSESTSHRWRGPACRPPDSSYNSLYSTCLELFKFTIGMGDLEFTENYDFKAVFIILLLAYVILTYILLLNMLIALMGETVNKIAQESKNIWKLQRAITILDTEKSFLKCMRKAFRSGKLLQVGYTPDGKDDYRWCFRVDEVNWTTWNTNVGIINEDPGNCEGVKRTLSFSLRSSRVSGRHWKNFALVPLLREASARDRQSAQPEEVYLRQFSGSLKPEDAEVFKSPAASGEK
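Cells expressing TRPV1 were dye-loaded with Fluo-8 and read kinetically: 10 s baseline, 3 min after compound (agonist portion), then 2 min after EC20 capsaicin (allosteric enhancer portion). Calcium-bound dye fluorescence at 480/520 nm.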
PINK1 expr mod: PINK1 expression modulation | PINK1 immunofluorescence, high-content cytometry, 24 h | 410,000 tested, 0.2% active | Potency, µM (doses to about 76.6 µM), without a hit: at the top dose activation (PINK1 increase), most hits filed as activators | AID 624263; active = well fitted activation curve with a large enough effect; inconclusive = small, poorly fitted or top-dose-only effect; inactive = flat fitted curve, though single readings scatter; cell line not stated here;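 also: potency is read from the fitted curve at half-maximal effect; % of control where 0% means no effect; nearly all actives have a fitted effect of over 65% in size; a mitochondrial uncoupler was the plate control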
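Stable cell line treated 24 h with compounds at 5 concentrations (CCCP controls), then fixed and immunostained for PINK1 plus nuclear and cell stains; PINK1 immunofluorescence quantified by laser-scanning microplate cytometry.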
TRPML1 blocker: blocks the human TRPML1 channel. Q9GZU1. TRPML1-inducible cells, Ca2+ dye fluorescence, FDSS; hits give low values; inhibition of EC80 agonist-evoked calcium signal. activity change, negative = inhibition, % (no concentration beside the values). 390,000 tested, 0.02% active; in the data active means activity change below about -50%; inconclusive means about -30% to -50%; inactive means above about -30%;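 also: stimulus is agonist 54-4 at its EC80 concentration; % is scaled to controls: 0 for no effect and ±100 for the full control effect; compound concentration not given in the record; the text of the record puts the active cut at -80%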
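TRPML1-DL cells, Tet-induced overnight (~16 h, 37 °C) at 1,500 cells/well, were loaded with Ca8 no-wash dye plus quencher for 45-90 min at room temperature. Compounds were pinned during FDSS kinetic reading; agonist 54-4 at EC80 (4 uM final) then added.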
Menin-MLL FL inh: inhibitors of human menin-MLL interaction, wild-type MLL peptide. Fluorescence polarization, fluorescein-MLL peptide displacement from menin. FP activity change, % at 61.4 µM. 290,000 tested, under 10 active; inconclusive = falling polarisation curve, or a change in total fluorescence; inactive = total fluorescence flat and polarisation flat or rising; no compound was filed as active; the % refers to the polarisation; negative = inhibition;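 also: % of control where 0% means no effect; inhibitors lower the polarisation; unlabelled MLL peptide was the positive control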
TRPML1 agonist: activates the human TRPML1 channel; activation, % (concentration not given with the values); Q9GZU1; AID 624414; 410,000 tested, 0.12% active; TRPML1-expressing cells, Ca2+ dye fluorescence, FDSS; host cell line not named in the record; reference of the full effect not given here; in the data active = activation above about 50%; inconclusive = about 30% to 50%; inactive = below about 30%; also: 0% is about no effect; the text of the record puts the active cut at 80%
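Kinetic FDSS Ca2+ read in Tet-induced TRPML1-DL cells (ABD Ca8 dye plus quencher, 45-90 min RT loading): baseline, then compound, then 110 s agonist window; EC80 agonist 54-4 at 4uM final added afterwards for a 110 s antagonist window.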
ClpP mod: qHTS Assay for Activators of ClpP; ATP-dependent Clp protease proteolytic subunit (Bacillus subtilis (strain 168)), P80244; purified B. subtilis ClpP, FRET peptide cleavage, 20 min; Potency, µM (titrated, usually from 57.5 µM), without a hit: top-dose activity change, negative = active; 340,000 tested, 1.9% active; active = well fitted falling curve with a large enough effect; inconclusive = small, poorly fitted or top-dose-only effect; inactive = no such curve, though single readings can be large or run the other way; also: potency is read from the fitted curve at half-maximal effect; the source files actives as falling curves though it sought activators and does not explain the sign; nearly all actives have a fitted effect of over 65% in size; many hits overshoot -100%
Target sequence (P80244 whole entry, looked up): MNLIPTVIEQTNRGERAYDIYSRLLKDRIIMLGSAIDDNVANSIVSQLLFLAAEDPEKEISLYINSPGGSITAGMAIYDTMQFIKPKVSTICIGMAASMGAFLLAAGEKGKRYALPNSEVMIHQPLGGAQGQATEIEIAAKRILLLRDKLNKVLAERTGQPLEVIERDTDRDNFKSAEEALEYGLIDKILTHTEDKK
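Buffer: 100 mM Tris/HCl pH8, 100 mM KCl, 0.05% low protease BSA, 2.5% glycerol, 0.01% Tween-20. ClpP 10 microg/mL final; 20 min RT; delta FRET normalized to ADEP and DMSO controls.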
Sfp inh: Sfp phosphopantetheinyl transferase inhibition. Q9F4F7. 310,000 tested, 3.5% active. Biochemical Sfp PPTase activity, qHTS. Potency, µM, for inactives: max response, negative = inhibition, actives largely listed as inhibitors. AID 1490; active = well fitted inhibition curve with a large enough effect; inconclusive = small, poorly fitted or top-dose-only effect, or another doubt; inactive = no such curve, though single readings can be large or run the other way;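 also: the enzyme is Sfp with the accession as filed and its product quenches rhodamine fluorescence; potency is read from the fitted curve at half-maximal effect; 0% = enzyme reaction without inhibitor and -100% = no enzyme wells; top concentration of the series not given in the record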
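Fluorescence-quenching assay with 15 nM Sfp, 5 uM rhodamine-CoA and 12.5 uM BHQ-2-labelled ybbR peptide in pH 7.6 Hepes/MgCl2 buffer. Enzyme was pre-incubated with compound for 15 min at room temperature. Rate was taken from the 30-min fluorescence change (525/598 nm).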
The depositor's hits bear a star; ? = inconclusive; . = not tested or not shown; [ ] = another dose, or the depositor's remark.

Screens in order – Menin-MLL FL inh | ClpP mod | TRPML1 agonist | TRPML1 blocker | Sfp inh | TRPV1 potentiator | PINK1 expr mod
CC(=O)Oc1ccc(C(=O)Nc2cccnc2)cc1
  0.2 | 1.2% | -0.1 | 20 | 12% | -43 | 0.2%
CCCCN(CC)CCNc1c(N2CCN(C(=O)OCC)CC2)c(=O)c1=O
  -3.4 | 1.5% | -0.1 | -3 | 9% | 1 | 8.8%[38.3 µM]
Cc1ccc(NC(=O)NCCCN2CCCC2=O)c(C)c1
  . | 0.4% | 1.2 | 7 | 6% | 1 | -1.0%
COc1ccc(C(=O)NCc2cc(C)nc3ccccc23)cc1OC
  -0.9 | -0.5% | -0.8 | -10 | 15% | ? | 6.2%
Cc1noc(C)c1CSCC(=O)Oc1ccc(N(C)S(=O)(=O)c2ccccc2)cc1
  . | 1.1% | 1.3 | 28 | . | 0 | 0.9%
CC1(C)CC(=O)C2=C(C1)N(c1ccc(F)cc1)C(=O)CC2c1ccccc1 (configuration not stated)
  -1.0 | 0.4% | 0.1 | -1 | 14% | -8 | -1.6%
COc1ccc(NC(=O)C2CC2(Cl)Cl)cc1S(=O)(=O)N1CCCCC1 (configuration not stated)
  . | 0.1% | -0.9 | 14 | . | . | 0.8%
O=S(=O)(c1cccc(NC(=S)NCc2ccco2)c1)N1CCOCC1
  0.3 | -2.5% | 0.4 | -2 | 5% | -3 | 2.0%
COc1ccccc1Nc1nc(N)nc(CN2CCN(c3ccccc3F)CC2)n1
  -1.2 | -0.2% | 3.1 | -6 | -7% | 6 | -1.7%
CC(C)c1cc(-c2n[nH]c(=S)n2Cc2ccccc2)cs1
  -1.1 | -15% | -0.3 | 26 | -4% | . | 2.7%[38.3 µM]

Quoted from above, four compounds:
Screens in order – Menin-MLL FL inh | ClpP mod | TRPML1 agonist | TRPML1 blocker | Sfp inh | TRPV1 potentiator | PINK1 expr mod
CC(=O)Oc1ccc(C(=O)Nc2cccnc2)cc1
  0.2 | 1.2% | -0.1 | 20 | 12% | -43 | 0.2%
CCCCN(CC)CCNc1c(N2CCN(C(=O)OCC)CC2)c(=O)c1=O
  -3.4 | 1.5% | -0.1 | -3 | 9% | 1 | 8.8%[38.3 µM]
Cc1ccc(NC(=O)NCCCN2CCCC2=O)c(C)c1
  . | 0.4% | 1.2 | 7 | 6% | 1 | -1.0%
COc1ccc(C(=O)NCc2cc(C)nc3ccccc23)cc1OC
  -0.9 | -0.5% | -0.8 | -10 | 15% | ? | 6.2%

Carrying on:
Screens in order – Menin-MLL FL inh | ClpP mod | TRPML1 agonist | TRPML1 blocker | Sfp inh | TRPV1 potentiator | PINK1 expr mod
Cc1ccc(C(=O)CSc2nc3ccccc3c(=O)n2N)o1
  10 | -4.5% | -0.5 | -16 | ? | 3 | -1.9%[38.3 µM]
Cc1ccc(CONC(=O)c2ccc(C)cc2)cc1
  . | -1.2% | 3.3 | -13 | . | 11 | -0.5%
COc1ccccc1NC(=S)N/N=C1\CC(C)(C)Oc2ccc(O)cc21
  2.7 | 25µM* | 2.2 | 6 | 38%[activator] | 6 | 2.1%
O=C(COc1ccc(Br)cc1F)Nc1nnc(C2CC2)s1
  . | 0.3% | 0.0 | -12 | . | . | -0.1%
COc1ccc(C)cc1S(=O)(=O)N(C)CC(=O)Nc1ccc2c(c1)OCO2
  2.8 | 1.0% | 0.0 | 0 | 16% | -6 | .
O=C(NCCCN1CCOCC1)c1ccc2c(c1)N(Cc1c(F)cccc1Cl)C(=O)CS2
  -4.0 | . | 0.2 | 8 | 19% | -27 | -0.3%
COc1ccc(S(=O)(=O)N2CCN(Cc3cccnc3)CC2)cc1
  0.6 | -1.2% | -0.2 | -8 | 11% | 2 | -1.0%
Cc1ccc(O)c(CNc2nc3ccccc3n2C)c1
  2.4 | 1.8% | 8.1 | -9 | -12% | 21 | -1.2%
O=C(NNC(=O)c1cc(S(=O)(=O)N2CCOCC2)ccc1Cl)c1ccc(F)cc1
  . | 1.1% | -0.5 | 6 | . | . | 1.8%
O=C(NC(=S)Nc1c(F)cc(F)cc1Br)c1ccc2c(c1)OCCO2
  -0.1 | 3.4% | 0.8 | -4 | -13% | -12 | 8.1%
Cc1cccc(NC(=S)/N=C(\N)Nc2nc(C)c3ccccc3n2)c1
  0.9 | 0.5% | -0.9 | -3 | 3% | ? | 1.8%
COc1ccc(Cc2c(C3CCCCC3)nc3ccc(Cl)cn23)c(C)c1
  . | -21% | -0.2 | 2 | . | . | 11%
CN1C(=O)C(Cl)(Cl)C(=O)c2ccccc21
  2.1 | . | 1.7 | -15 | 2.5µM* | 0 | -1.4%
Oc1ccc2ccccc2c1Br
  0.0 | -9.8% | -0.3 | 33 | 15% | 3 | 2.7%
COC(=O)c1ccc2[nH]c(CO)c(-c3ccccc3)c2c1
  0.0 | ? | 0.5 | -3 | 2% | 11 | 4.9%
N#Cc1c(-c2ccccc2)nc2n(c1=O)CCS2
  1.7 | -2.3% | -0.8 | -16 | 10% | 0 | -3.2%
CCCCc1nc(N2CCOCC2)c(C#N)c2c1CCCC2
  1.9 | 25µM* | 7.8 | 1 | 1% | -6 | 2.2%
CCOC(=O)c1[nH]c2ccc(F)cc2c1NC(=O)C(C)N1CCc2cc(OC)c(OC)cc2C1 (configuration not stated)
  0.2 | 20µM* | -0.8 | -9 | 3% | -10 | -1.0%
CC(C)C1=C2OC(N)=C(C#N)C(C#N)=C2C(C)CC1 (configuration not stated)
  ? | ? | 0.2 | 5 | 79µM* | 4 | 0.8%[38.3 µM]
CCCn1nnc(NC(=O)c2cc3ccccc3o2)n1
  1.2 | -6.1% | 0.4 | -1 | 17% | -10 | -2.5%[38.3 µM]
CCOc1ccc(N2C(=O)c3ccccc3C2O)cc1 (configuration not stated)
  -5.4 | 0.9% | -0.7 | 12 | 6% | 1 | -0.8%
Cc1ccc(S(=O)(=O)Cc2ccc(C(=O)N3CCCCCC3)o2)cc1
  -0.6 | 0.4% | 0.7 | -8 | 9% | -9 | 0.2%
COc1cccc(C(=O)Nc2cc(-c3cn4cccnc4n3)ccc2C)c1OC
  . | 4.6% | -0.3 | 0 | . | . | 1.3%
CCOCCCNC(=O)c1ccc(N2CC3CC(C2)c2cccc(=O)n2C3)c(NC(=O)Nc2cccc(OC)c2)c1 (configuration not stated)
  -0.1 | -2.3% | -0.3 | -26 | 11% | 0 | -0.3%
O=C(CN1C(=O)CC(c2ccco2)Sc2ccccc21)Nc1ccc2c(c1)OCCO2 (configuration not stated)
  4.9 | -0.9% | 1.1 | 2 | -13% | 4 | -2.8%[38.3 µM]
O=C(NCc1cccs1)c1ccc(Cl)s1
  2.2 | -4.0% | -0.5 | 0 | 11% | -16 | 2.7%[38.3 µM]
CCOC(=O)C1(Cc2cccc(Cl)c2)CCCN(C(=O)c2ccoc2C)C1 (configuration not stated)
  . | -1.6% | 1.8 | 11 | 0% | -7 | -0.8%
CC1=C(C(=O)NCCN2CCN(C)CC2)C2(CCC(C)CC2)OC1=O (configuration not stated)
  -0.8 | 3.5% | 0.3 | 5 | -8% | -10 | -1.2%
O=C(N/N=C/c1sc(N2CCOCC2)nc1-c1ccccc1)c1ccccc1F
  3.6 | . | 0.6 | 4 | -4% | -4 | -0.4%
COc1cc(C(=O)Nc2cc(S(=O)(=O)N3CCOCC3)ccc2N2CCOCC2)ccc1OC(F)F
  . | -0.4% | -0.3 | 19 | . | . | -0.2%
CC(C)(C)Nc1nc(-c2ccccn2)nc2ccccc12
  3.1 | 1.3% | -0.6 | 14 | 4% | -1 | ?
CCOC(=O)N1CCC(NC(=O)c2sc(-n3cccc3)nc2C)CC1
  -1.7 | -0.3% | -0.7 | 4 | 6% | 0 | -0.8%
O=C1COc2ccc(C(=O)COC(=O)c3cc(S(=O)(=O)N4CCOCC4)ccc3F)cc2N1
  7.5 | -2.7% | -0.4 | -5 | -3% | -7 | -0.3%
O=C(c1ccc(Br)o1)N1CCCc2ccccc21
  -0.6 | -0.3% | 0.3 | 31 | -4% | -8 | -0.7%
Cc1ccc(NC(=O)CN(C)Cc2nc3c(Br)cc(Br)cc3c(=O)[nH]2)cc1
  1.6 | -0.1% | -0.9 | 10 | 0% | 0 | 3.1%
O=C(NCCCC1CCCC1)C1CCC(=O)N(Cc2cccc(F)c2)C1 (configuration not stated)
  . | 0.6% | 0.9 | -5 | 11% | 3 | 0.6%
CC(C)CCNC(=O)CCn1nc(-c2ccc(Cl)cc2)ccc1=O
  -3.3 | -12% | 3.9 | 23 | 7% | 14 | -1.0%
CC(C)CCC(=O)Nc1cc(S(=O)(=O)N2CCOCC2)ccc1N1CCCC1
  . | -1.5% | -0.8 | -10 | . | . | 2.2%
CC(=O)c1ccc(OC2(C)CCN(Cc3ccccc3OC(F)F)C2)cc1 (configuration not stated)
  . | -7.6% | -0.9 | . | . | . | 0.4%
COc1cc(CNc2ccc3[nH]c(=O)[nH]c3c2)ccc1OCC(=O)NC(C)(C)C
  1.0 | 17% | 0.7 | -15 | -19% | 2 | -0.5%
CCOc1cc(/C=N/N2CCOCC2)ccc1OCc1ccc(C(=O)OC)o1
  -1.7 | . | 1.6 | 12 | 13% | -9 | -1.1%
N#C/C(C(=O)Nc1ccc(Cl)cc1)=C(/S)Nc1ccccc1
  ? | 0.5% | 0.1 | -14 | 0.79µM* | -11 | 1.8%
O=C(O)C1CCN(S(=O)(=O)c2ccc(N3CCC(O)CC3)c([N+](=O)[O-])c2)CC1
  . | 1.9% | 0.3 | 11 | -1% | 0 | -1.5%
CC(C)c1ccc(CN2CCC(C(=O)NCc3cccnc3)CC2)cc1
  -2.0 | -0.2% | -0.3 | 3 | 79µM* | 13 | -2.1%
O=C(CCc1ccc(S(=O)(=O)NCc2ccccc2)cc1)NCc1ccc2c(c1)OCO2
  -3.3 | -0.8% | 0.3 | -1 | 15% | 3 | ?

Rows were taken by chance; 4.4% or so of the library scored in one or more.
